A647 fluor: A647 region autofluorescence | 59,000 tested, under 10 active | Compound fluorescence, A647 channel (570/671 nm), Tris buffer | max dye-equivalent concentration, M | AID 592; active means above 1 µM dye equivalent; inconclusive means 0.1 to 1 µM; inactive means 0.1 µM or less;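 note: values scaled relative to a standard on each plate; highest value over a series up to 38 µM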
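Spectral profiling of library compounds in pH 8.0 Tris: 15 min room-temperature incubation, single ex/em pair (570/671 nm), response normalized to Alexa 647 equivalents.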
Resorufin autofl: resorufin region autofluorescence; Compound fluorescence, resorufin region 547/598 nm, buffer; hits give high values; max dye-equivalent concentration, M; AID 588; actives 0.04% (n = 59,000); active = above 10 nM dye equivalent; inconclusive = 1 to 10 nM; inactive = 1 nM or less; a few of its hits are not listed in these tables; note: highest value over a series up to 38 µM
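Read-out: intrinsic compound fluorescence at ex 547/em 598 nm after 15 min at RT in pH 8.0 Tris (100 mM). Values expressed as resorufin-equivalent concentration from per-plate standard series.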
AID923: qHTS Assay for Allosteric/Competitive Inhibitors of Caspase-1: Spectroscopic Profiling in AFC Spectral Region; compound fluorescence, AFC spectral region (405/520 nm); almost no hit is shown here; Potency, µM (top dose mostly 57.5 µM), for inactives: at the highest dose fluorescence increase, hits mostly activators; actives 1.1% (n = 75,000); AID 923, 2007; active = well fitted activation curve with a large enough effect; inconclusive = small, poorly fitted or top-dose-only effect;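 note: potency is the fitted concentration of half-maximal effect; 0% is about no effect; scaled to a free AFC standard on each plate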
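Titrations up to 57 uM read every 20 sec for 3 min (405/520 nm) with 50 nM caspase 1 and 5 uM Ac-WEHD-AFC, pH 7.5 HEPES buffer. Fluorescence-vs-time intercept gave baseline, scaled against on-plate AFC standard.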
TSHR agonist: agonists of human thyroid stimulating hormone receptor; P16473; AID 926; actives 0.48% (n = 73,000); HEK293-CNG-TSHR cells (CNG channel as cAMP sensor), membrane potential dye, cAMP; Potency, µM (top dose mostly 57.1 µM), for the others: top-dose activation, most hits filed as activators; active = well fitted activation curve of enough size with the parental cells flat; inconclusive = any curve in the parental cells; inactive = parental cells flat and receptor cells flat or falling; note: potency is the fitted concentration of half-maximal effect; % of control where 0% means no effect; weak receptor curves with flat parental cells got no call and are not listed
Target sequence (P16473 whole entry, looked up): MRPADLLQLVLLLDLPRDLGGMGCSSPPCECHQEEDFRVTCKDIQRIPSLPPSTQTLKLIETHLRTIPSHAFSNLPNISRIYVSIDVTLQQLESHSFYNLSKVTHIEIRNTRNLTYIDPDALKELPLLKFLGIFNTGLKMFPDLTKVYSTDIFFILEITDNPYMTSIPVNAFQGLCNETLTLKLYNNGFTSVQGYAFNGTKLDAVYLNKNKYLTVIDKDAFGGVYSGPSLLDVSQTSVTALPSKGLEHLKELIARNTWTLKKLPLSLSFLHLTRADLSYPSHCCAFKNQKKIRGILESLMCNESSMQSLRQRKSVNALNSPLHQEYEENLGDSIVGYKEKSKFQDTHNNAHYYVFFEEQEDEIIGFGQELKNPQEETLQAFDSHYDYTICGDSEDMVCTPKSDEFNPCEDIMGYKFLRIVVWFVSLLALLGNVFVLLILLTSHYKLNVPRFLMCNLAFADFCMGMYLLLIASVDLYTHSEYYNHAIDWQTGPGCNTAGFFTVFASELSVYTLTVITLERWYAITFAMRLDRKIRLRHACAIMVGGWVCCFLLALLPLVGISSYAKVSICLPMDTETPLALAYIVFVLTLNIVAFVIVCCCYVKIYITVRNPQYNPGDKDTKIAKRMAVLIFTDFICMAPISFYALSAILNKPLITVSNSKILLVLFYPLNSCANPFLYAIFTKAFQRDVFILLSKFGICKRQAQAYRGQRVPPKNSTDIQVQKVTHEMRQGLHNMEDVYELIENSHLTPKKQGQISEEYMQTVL
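HEK 293 cells stably expressing TSHR and a cAMP-gated CNG channel; parental CNG-only cells as counterscreen. Cells preloaded 60 min with membrane potential dye plus 100 uM RO 20-1724, then compound 30 min; fluorescence read at 590 nm.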
A488 autofl: compound autofluorescence in A488 spectral region. max dye equivalency, M. actives 0.1% (n = 59,000). AID 591. compound autofluorescence, A488 spectral region, dye equivalency; hits give high values; active = above 10 nM dye equivalent; inconclusive = 1 to 10 nM; inactive = 1 nM or less; about half of its hits are not listed in these tables;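 note: highest value over a series up to 38 µM; compound alone in buffer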
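Autofluorescence read at ex 480/em 540 nm after 15 min RT in 100 mM Tris pH 8.0; compound signal normalized to A488 standard series on each plate, reported as dye-equivalent concentration at each test concentration.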
Active calls of the source: *; i = inactive; ? = inconclusive; . = not tested or not shown; [ ] = another dose, or the depositor's remark. These rows are one share of the data. The share of hits here may be higher or lower than overall.

Molecule,A488 autofl,A647 fluor,Resorufin autofl,AID923,TSHR agonist
Cc1ccnc2nc(C(=O)OCCOc3cccc(Br)c3)nn12,i,1e-09,i,2.1%,-1%
COc1ccc(CNc2ncnc3ccc(-c4cccnc4)cc23)c(OC)c1,i,5.2e-09,i,0.4%,27%
Cc1oc(-c2ccc(Cl)cc2)nc1CN1CCCC(C(=O)NCc2ccccn2)C1 (centres undefined),i,1e-09,i,-1.6%,7%[11.4 µM]
COc1cc(CN2CCC(C(=O)N3CCC(C)CC3)CC2)cc(Br)c1O,i,4.6e-08,i,1.0%,5%
COc1ccc2c3c(cccc13)NN=C2C,i,1.2e-08,i,1.6%,-17%
Cc1ccc(CS(=O)(=O)CCC(=O)NCCCN2CCCC2=O)cc1,i,3.4e-08,i,-3.2%,-2%
CCOC(=O)CSC1=C(C#N)C(c2ccc(C)s2)CC(=O)N1 (centres undefined),.,.,.,-1.4%,10%
CCOCC(=O)N1CCN(c2ccc(F)cc2)CC1,i,1e-09,i,-0.1%,1%
Clc1ccc(OCc2nnc(-c3ccccc3Br)o2)c(Cl)c1,.,.,.,-0.6%,?
O=C(c1ccc2c(c1)OCO2)N(CC1CCCO1)C1(C(=O)NC2CCCC2)CCCCC1 (centres undefined),i,3.5e-09,i,-2.6%,?
Cc1ccnc(N2CCN(c3c4c(c(C#N)c5nc6ccccc6n35)CCC4)CC2)c1,i,8.1e-08,i,.,.
CC(=O)NC(CC(=O)NCC(c1ccco1)N(C)C)c1ccccc1 (centres undefined),i,4.2e-09,i,3.8%,6%
Cc1ccc(-c2[nH]nc3c2C(c2cccnc2)C(C#N)=C(N)O3)cc1 (centres undefined),i,3.3e-08,i,1.8%,7%
CCCN1C(=O)c2cc(C(=O)NCc3ccc(OC)cc3)ccc2C1O (centres undefined),.,.,.,0.9%,1%
Cc1cccc2cc(COC(=O)COc3ccccc3)c(=O)[nH]c12,i,2.9e-08,i,1.9%,8%
COC(=O)c1ccc(NC(=O)CCNS(=O)(=O)c2cccc3nonc23)cc1,i,2.4e-09,i,1.8%,-9%
CC(=O)Nc1cccc(N(C)C)c1,.,.,.,0.8%,0%
CCOC(=O)c1cnn2c1[nH]c(=O)c1ccccc12,i,2.7e-08,i,.,.
c1ccc2c(c1)nc(NCCN1CCOCC1)c1nncn12,.,.,.,-2.7%,-2%
Cc1ccc(Nc2cc(C)nc3nnnn23)cc1,i,4.4e-08,i,0.0%,-1%
NC(=O)C1(N2CCCCC2)CCN(CC(=O)Nc2ccc(Oc3ccccc3)cc2)CC1,i,1e-09,i,1.1%,-11%
O=C(Cn1cnc2c(nnn2-c2cccc(Cl)c2)c1=O)N1CCCC1,i,2.8e-09,i,1.1%,2%
CC(=O)NC1CC2CCCC(C1)N2S(=O)(=O)c1cccc(F)c1 (centres undefined),i,1.2e-08,i,-1.8%,0%
CCCC(=O)Nc1ccc(Cl)c(NC(=O)CC)c1,i,1e-09,i,-0.4%,15%
COc1ccc(CCNC(=O)c2c(O)c3c([nH]c2=O)CCCC3)cc1OC,i,1e-09,i,-0.1%,9%
Cc1noc(C)c1C(=O)N1CCN(Cc2ccc3c(c2)OCO3)CC1,i,2.6e-08,i,-0.5%,4%
COc1ccc(C2c3c(oc4ccccc4c3=O)C(=O)N2c2ccccn2)cc1OC (centres undefined),.,.,.,-1.1%,1%
O=C(CCN1C(=O)C2CC=C(Cl)CC2C1=O)Nc1ccccc1O (centres undefined),i,1.1e-09,i,1.4%,-1%
Cn1c(C(=O)N2CCCC(C(=O)NCc3ccc4c(c3)OCO4)C2)cc2sccc21 (centres undefined),.,.,.,-0.9%,14%
COc1ccc(-c2nnc(SCc3ncc(-c4ccccc4)o3)o2)cc1,i,2.6e-09,i,4.7%,?
CN1C(=O)C(O)(c2sc(N)nc2-c2ccccc2)c2ccccc21 (centres undefined),i,1e-08,i,0.4%,12%
FC(F)(F)c1cc(-c2ccco2)nc(-n2nnc3ccccc32)n1,i,3.3e-09,i,-1.3%,?
CN1CCN(c2ccccc2NC(=O)c2ccc(-c3ccccc3)cc2)CC1,i,6e-09,i,-1.6%,-20%
Cc1c(NC(=O)c2cc(-c3cccs3)on2)c(=O)n(-c2ccccc2)n1C,i,1e-09,i,-0.4%,1%
COc1ccc(-n2c(=O)c(-c3ccc(F)cc3)nc3cnc(OC)nc32)cc1,i,1e-09,i,-0.2%,-1%
CC(=O)N(Cc1ccco1)C1(C(=O)NC2CCCCC2)CCCCC1,i,7.2e-09,i,1.1%,?
O=c1cnc2cnc(Nc3ccccc3)nc2n1Cc1cccs1,i,3.7e-09,i,12%,?
Cc1cc(C)n(C(=O)c2ccncc2)n1,i,1.4e-08,i,-0.7%,-1%
COc1cc(NS(=O)(=O)c2cccc3nsnc23)c(C(=O)O)cc1OC,i,1e-09,i,-0.8%,1%
C#CCCCO/N=C1/C[C@@H](O)[C@@H](O)[C@@H]2[C@@H]3C(=O)N(CCC(=O)OCC)C(=O)[C@H]3CC[C@H]12,.,.,.,1.1%[11.5 µM],-5%[11.4 µM]
CC(Sc1nnc(C2CCCCC2)n1N)C(=O)NCc1ccc2c(c1)OCO2 (centres undefined),i,4e-09,i,-3.0%,4%
O=C1Nc2ccccc2OC1CC(=O)N1CCCC1 (centres undefined),.,.,.,-2.4%,-10%
CCCC(=O)c1cc2ccccc2oc1=O,i,1.5e-08,i,1.8%,1%
COC(=O)CSc1nnc(-c2ccoc2C)n1-c1ccc(OC)cc1,i,3.2e-09,i,-1.4%,10%
Cn1ncc(N)c1C(=O)Nc1cccc(C(F)(F)F)c1,i,1e-09,i,0.3%,-3%
C[C@@H](C(=O)Nc1ccc2ccccc2c1)[C@H]1C[C@]1(C)[C@H](NC(=O)c1cnccn1)c1ccccc1,.,.,.,-1.2%,?
Cc1ccc(C)c(N=C2NC(=O)CS2)c1,i,1.6e-09,i,-1.2%,-2%
Cc1onc(-c2ccccc2)c1C(=O)Oc1cccnc1,i,2e-09,i,2.9%,20%
CC(=O)c1cnc2nc(C(F)(F)F)nn2c1C,i,1e-09,i,0.6%,-1%
COCCNC(=O)CN1C(=O)CSc2ncccc21,.,.,.,-0.3%,0%

Other structures follow.
Molecule,A488 autofl,A647 fluor,Resorufin autofl,AID923,TSHR agonist
O=C(NCc1ccco1)c1cc2ccccc2o1,.,.,.,1.4%,21%
COC(=O)c1ccc(CSc2ccc3nnc(-c4ccc(OC)c(OC)c4)n3n2)o1,i,2.1e-09,i,-0.8%,22%[11.4 µM]
COc1cc(/C=c2\sc3nc(-c4ccncc4)nn3c2=O)ccc1OC(C)=O,i,1e-09,i,2.6%,4%
Cc1cc(C)n2nc(C(=O)NCc3ccco3)nc2n1,i,8.3e-09,i,-0.7%,-2%
O=C(NCC1CCCO1)C1CCCN(S(=O)(=O)c2cccc3nsnc23)C1 (centres undefined),i,2.2e-08,i,1.2%,?
CC(C)(C)c1cc(CCC(=O)N2CCNCC2)c(C(C)(C)C)cc1O,i,1e-09,i,0.0%,1%
O=C1Nc2ccccc2C(O)(C(=O)N2CCCCC2)N1c1ccccc1 (centres undefined),.,.,.,0.8%,-4%
Cc1ccc(C(O)c2cccnc2)o1 (centres undefined),i,2.4e-08,i,1.8%,5%
CCOC(=O)C1=C(c2ccccc2)Nc2ncnn2C1c1cc(OC)ccc1OC (centres undefined),.,.,.,-0.2%,2%[11.4 µM]
CCn1c(NC(=O)c2ccco2)c(-c2ccccc2Cl)c(=O)c2ccccc21,i,1e-09,i,0.3%,4%
COc1ccccc1NC(=O)CSc1nnc(-c2ccco2)n1Cc1ccco1,i,7.6e-09,i,-1.3%,?
O=c1cc(CSc2nnc(COc3ccccc3)o2)c2ccccc2[nH]1,i,2.4e-08,i,0.5%,23%
CCN(CC(=O)O)C(=O)c1cccnc1,i,1e-09,i,2.9%[11.5 µM],-5%[11.4 µM]
Cc1ccccc1C(=O)O,.,.,.,-6.3%,6%
COc1ccc(OC)c(C2/C(=C(/O)c3ccccc3)C(=O)C(=O)N2Cc2ccco2)c1 (centres undefined),i,4.4e-09,i,.,.
NC(=O)C1CCN(C(=O)CN2CCCc3ccccc32)CC1,i,1e-09,i,19%,.
COc1ccc(OCCNS(=O)(=O)c2ccccc2)cc1,.,.,.,3.5%,23%
COc1ccccc1N(O)C1CC(=O)N(c2ccc(Br)cc2)C1=O (centres undefined),i,1.7e-09,i,.,.
CCCCc1ccc(NS(=O)(=O)N(C)C)cc1,.,.,.,1.6%,-4%[11.4 µM]
O=C1CN(C(=O)COC(=O)c2ccccc2NC(=O)c2ccco2)c2ccccc2N1,i,1e-09,i,0.6%,.
NC(=O)/C(=C\c1ccncc1)c1cccc2ccccc12,i,1e-09,i,2.1%[11.5 µM],-4%[11.4 µM]
C[C@@H]1C=C[C@](Cc2ccccc2)(C(=O)NCCc2c[nH]c3ccccc23)N1C(=O)c1ccccc1,.,.,.,0.0%,?
Cc1cccc(NC(=O)C2C(C(=O)O)C3C=CC2C32CC2)c1C (centres undefined),.,.,.,0.8%,1%
S=C(c1ccc(N2CCCC2)cc1)N1CCCCC1,i,2e-08,i,2.7%,-15%
O=C(c1ccccc1)C1CCc2occc2C1=O (centres undefined),i,1.2e-08,i,1.1%,1%

Reprinted from the part before: 6 entries, followed by the next part.
Molecule,A488 autofl,A647 fluor,Resorufin autofl,AID923,TSHR agonist
O=C1CN(C(=O)COC(=O)c2ccccc2NC(=O)c2ccco2)c2ccccc2N1,i,1e-09,i,0.6%,.
NC(=O)/C(=C\c1ccncc1)c1cccc2ccccc12,i,1e-09,i,2.1%[11.5 µM],-4%[11.4 µM]
C[C@@H]1C=C[C@](Cc2ccccc2)(C(=O)NCCc2c[nH]c3ccccc23)N1C(=O)c1ccccc1,.,.,.,0.0%,?
Cc1cccc(NC(=O)C2C(C(=O)O)C3C=CC2C32CC2)c1C (centres undefined),.,.,.,0.8%,1%
S=C(c1ccc(N2CCCC2)cc1)N1CCCCC1,i,2e-08,i,2.7%,-15%
O=C(c1ccccc1)C1CCc2occc2C1=O (centres undefined),i,1.2e-08,i,1.1%,1%
COC(=O)Nc1nc2ccc(SC(C)C)cc2[nH]1,i,4.6e-08,i,-2.4%[25.7 µM],-8%[25.6 µM]
c1ccc2nc3c(nc2c1)sc1nc2ccccc2n13,i,6.2e-09,i,-1.8%,5%
CCOC(=O)c1cn(CC(=O)Nc2ccc(C(C)C)cc2)nn1,i,3.1e-08,i,-1.6%,?
COc1ccc(C2=CC(c3ccc(C)cc3)n3nnnc3N2)cc1 (centres undefined),i,1e-09,i,.,.
O=C(Nc1nncs1)C1c2ccccc2Oc2ccccc21,i,5.3e-09,i,-1.4%,-6%
O=c1cc(N2CCc3ccccc32)[nH]c(=O)n1Cc1ccc(F)cc1,i,4.8e-08,i,3.9%,8%
O=C(Cc1ccccc1)NCCc1cn2ccsc2n1,.,.,.,-0.8%,?
CCC(=O)Nc1cc(C)c(NC(=O)c2ccco2)cn1,i,2.8e-08,i,0.4%,7%
COc1ccc(CCNC(=O)CCC(=O)N2CCN(S(=O)(=O)c3ccccc3)CC2)cc1OC,i,7.6e-09,i,2.1%,2%
Cc1ccc(C(C)C)c(OCCCN2CC(C)OC(C)C2)c1 (centres undefined),.,.,.,1.6%,?

Bioassay records (PubChem)
